GIV Gai3 FP: blocks GIV peptide binding to rat Galpha-i3; P08753; Galpha-i3/FITC-GIV peptide fluorescence polarization, 90 min; active compounds read low; scaled: aluminum fluoride 0%, vehicle 100%; percent of control (FP), % (concentration not given with the values); 210,000 compounds, 0.42% hits;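 active = replicate mean at 85% of control or lower, very high polarization wells dropped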;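 also: wells of about 15 µL received 100 nL stock; the first replicate is given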
Target sequence (P08753 whole entry, looked up): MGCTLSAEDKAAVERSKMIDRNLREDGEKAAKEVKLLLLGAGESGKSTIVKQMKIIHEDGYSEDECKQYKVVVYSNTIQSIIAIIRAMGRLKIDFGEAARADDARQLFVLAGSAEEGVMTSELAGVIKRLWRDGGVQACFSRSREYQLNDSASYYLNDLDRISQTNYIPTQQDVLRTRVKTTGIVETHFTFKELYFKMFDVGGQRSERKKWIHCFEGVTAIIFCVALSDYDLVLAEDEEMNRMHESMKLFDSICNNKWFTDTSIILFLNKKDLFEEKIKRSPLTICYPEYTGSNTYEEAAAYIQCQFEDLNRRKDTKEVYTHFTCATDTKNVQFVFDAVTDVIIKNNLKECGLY
Sa growth inh: blocks Staphylococcus aureus growth | S. aureus RN4220 growth, OD600, 20 h, 42 °C; active compounds read low | relative growth, % (concentration not given with the values) | 170,000 compounds, 0.53% hits;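 active = growth at 42 °C up to 50% and 20 or more points under that at 30 °C, or under 10% at both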;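 also: 300 nL library stock went into each well; scaled to the means of positive and negative controls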
HCMV UL50-53 inh: cytomegalovirus nuclear egress complex inhibition | 190,000 compounds, 0.15% hits | AID 1918969 | inhibition, % (concentration not given with the values) | HTRF UL50-UL53 interaction, normalized percent inhibition;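 active = both replicates at 50% or more, plus weaker picks with an unusually low signal ratio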;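 also: stock transfer was 100 nL into about 20 µL; 0% = negative control wells and 100% = wells with untagged competitor protein; inactives centre near -12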
Sa growth inh second temp: also measured in Sa growth inh; calls as there; relative growth, %; measured here: growth at 30 °C;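 optical density after 20 h as mean of two plates; 100% = untreated growth and lower means inhibition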
Active calls of the source: *; . = not tested or not shown; & = joins results of further samples.

1: CC1CCCCN1C(=O)CN1C(=O)CC(c2ccccc2)=Nc2ccccc21 (stereo unspecified)
2: CCCC(=O)N1N=C(c2ccc(C)cc2)OC1c1ccc(OC)cc1 (stereo unspecified)
3: O=C(O)C1CSC(C2CCCCC2)N1 (stereo unspecified)
4: CC(=O)n1c2ccccc2c2nc3ccccc3nc21
5: COc1cccc(-c2cc(C(=O)Nc3ccc4c(c3)OCCO4)c3ccccc3n2)c1
6: Cc1ccc(Nc2c3c(nc4nncn24)CCC3)cc1C
7: CC(NC(=O)OC(C)(C)C)c1ccccc1 (stereo unspecified)
8: CN1C(=O)CSC1=Nc1ccc(F)cc1
9: COC(=O)CON1C(=O)c2ccccc2C1=O
10: N#Cc1ccc(-c2csc(COc3ccc4nonc4c3)n2)cc1
screen / no.	1	2	3	4	5	6	7	8	9	10
GIV Gai3 FP	99	100	103	105	99	102	91	107	110	116
Sa growth inh	103	84	90	.	.	88	103	122	95	93
Sa growth inh second temp	81	95	107	.	.	86	99	79	89	87
HCMV UL50-53 inh	-37	.	-2	1	-17	-8	-24	-8	1	-14

11: CCC1CN(C(=O)N2CCC(C(=O)NCc3cccc(F)c3)CC2)c2cc(C)ccc2O1 (stereo unspecified)
12: COc1ccc(-n2c(=O)c3c(C)c(C)sc3n(Cc3ccc(F)cc3)c2=O)c(OC)c1
13: CC1(C)C(=O)N(CC(=O)Nc2cccc(F)c2)c2ccc(S(=O)(=O)N3CCCCC3)cc21
14: Cc1ccc(C)c(N2CCN(C(=O)CN3C(=O)CSc4c3c(C)nn4-c3ccccc3)CC2)c1
15: COc1cccc(-c2cc(C(F)(F)F)nc(-n3nc(C)c(Br)c3C)n2)c1
16: O=C(O)/C=C/C(=O)Nc1ccc(-c2cnco2)cc1
17: COc1ccc2oc(=O)c(C(=O)NCc3cccnc3)cc2c1
18: COc1ccc(NC(=O)[C@H](Cc2ccccc2)N2Cc3ccccc3C2=O)cc1OC
19: COC(=O)CCN1C(=O)/C(=C/c2ccc(OCc3ccc(Cl)cc3)c(OC)c2)SC1=S
20: CCCC1(C)SC(NC(C)=O)=NN1C(C)=O (stereo unspecified)
screen / no.	11	12	13	14	15	16	17	18	19	20
GIV Gai3 FP	106	103	105	104	109	95	102	105	104	98
Sa growth inh	118	92	94	89	84	81	104	107	.	103
Sa growth inh second temp	102	88	92	92	88	82	87	79	.	89
HCMV UL50-53 inh	-8	9	.	.	5	-14	-110	-22	-21	-9

21: O=C1OC2(O)c3ccccc3C(=O)N2c2ccccc21 (stereo unspecified)
22: CC(=O)Nc1ccc(NS(=O)(=O)c2ccc3c(c2)CC(C)N3C(=O)C2CCC2)cc1 (stereo unspecified)
23: COc1ccc(NC(=O)c2c(NCc3cccs3)sc3c2CCCCC3)cc1
24: Nc1nc(SCc2ccc(C(=O)NCCO)cc2)nc2sc3c(c12)CCCC3
25: C[C@H](NS(=O)(=O)c1cccc2nsnc12)C(=O)OCc1ccccc1
26: CC(C)CC(=O)Nc1ccccc1C(F)(F)F
27: Cc1noc(C(=O)Nc2ccc(Cl)cc2)c1Cl
28: O=C(O)CC(C(=O)NCc1ccccc1)C1=CCCCC1 (stereo unspecified)
29: O=C1CN(c2ccc(OC(F)(F)F)cc2)C(=O)CN1Cc1ccc2c(c1)OCO2
30: CCOc1ccc(NC(=O)CSc2c3c(nc4ccccc24)CCCC3)cc1
screen / no.	21	22	23	24	25	26	27	28	29	30
GIV Gai3 FP	102	102	121	103	.	97	102	100	102	102
Sa growth inh	87	111	80	.	91	114	.	106	96	90
Sa growth inh second temp	82	82	71	.	89	105	.	87	94	94
HCMV UL50-53 inh	-49	.	.	-4&26	-94	-14	-37	-8	-26	-31

31: COc1ccc(NC(=O)Cn2c(C)cc(C)c(S(=O)(=O)c3ccc(OC)c(OC)c3)c2=O)cc1
32: CSc1cccc2cccnc12
33: COc1ccc(C(=O)n2c(=S)nc3cc(C)ccn32)cc1
34: O=C(NCc1ccc2[nH]c3c(c2c1)CCCC3)c1ccc(F)c(F)c1
35: CCOC(=O)c1ccc(CNS(=O)(=O)c2ccc(S(=O)(=O)N3CCOCC3)cc2)o1
36: CC1=C(C(=O)OCCc2ccccc2)C(c2cccc(OCc3ccccc3)c2)NC(=O)N1 (stereo unspecified)
37: COc1ccc(CNC(=O)CCC(=O)N2CC3CCCN3c3ccccc32)c(OC)c1 (stereo unspecified)
38: Cc1cccc(-n2c(=O)c3c4c(sc3n3c(C)nnc23)CCCC4)c1
39: Cc1ccc2[nH]cc(S(=O)(=O)c3ccc(C)c(C)c3)c(=O)c2c1
40: COc1cccc(CN2CCC(N3CCCCC3)CC2)c1
screen / no.	31	32	33	34	35	36	37	38	39	40
GIV Gai3 FP	106	104	.	102	.	101	96	112&103	101	110
Sa growth inh	.	94	103	92	109	.	103	125&99	85	97
Sa growth inh second temp	.	83	84	84	96	.	89	99&85	78	117
HCMV UL50-53 inh	-3	-3	10	.	-5	-8	.	-13	-8	12

41: Cc1ccc(-c2c(C(F)(F)F)nn3c(N4CCN(CCO)CC4)cc(C)nc23)cc1
42: Brc1ccc(CN2CCc3nc(N4CCN(c5ncccn5)CC4)ncc3C2)cc1
43: COc1cccc(NCc2nnc(SCC(=O)c3ccc[nH]3)n2C2CCCCC2)c1
44: CCCC(=O)N(CC)c1ccccc1C
45: CCC(NC(=O)Nc1cc(Cl)ccc1OC)c1c(-n2cccc2)sc2c1CCN(C)C2 (stereo unspecified)
46: CC12CCC(=O)N1C(C(=O)OCc1nc3ccccc3c(=O)n1CC#N)CS2 (stereo unspecified)
47: Cc1ccc(C2Nc3ccccc3-n3c(-c4ccccc4)c4c(=O)n(C)c(=O)n(C)c4c32)cc1 (stereo unspecified)
48: CN(C)C(=S)Nc1ccc(Cc2ccncc2)cc1
49: CC1C(=O)OC(c2ccccc2)C(C)(C)C1=O (stereo unspecified)
50: CN(C)S(=O)(=O)c1ccc(=O)n(CC(=O)N2CC(=O)Nc3ccccc32)c1
screen / no.	41	42	43	44	45	46	47	48	49	50
GIV Gai3 FP	102	104	.	101	119	.	101	101	95	.
Sa growth inh	.	96	108	97	78	74	131	92	80	90
Sa growth inh second temp	.	67	73	102	1	93	87	100	116	92
HCMV UL50-53 inh	2	.	-9	-4	.	-10	-14	-7	-1	0

51: O=C(Cc1ccc(Cl)cc1)Nc1ccc2nn(-c3ccccc3)nc2c1
52: CC(C)OCCCNc1sc(S(=O)(=O)c2ccccc2)nc1S(=O)(=O)c1ccc(Cl)cc1
53: CC1CCc2c(sc3nc(SCc4nc(-c5ccccc5)no4)n(C)c(=O)c23)C1 (stereo unspecified)
54: CCOC(=O)c1ccc(NC(=O)Cc2ccc(-n3c(CC)nc4cccnc43)cc2)cc1
55: Cc1nc(C)c(C(=O)Nc2ccccc2)s1
56: O=C1/C(=C\Nc2ccccc2F)S(=O)(=O)N(Cc2ccc(Cl)cc2)c2ccccc21
57: CN(C)S(=O)(=O)c1ccc2oc(=S)[nH]c2c1
58: COc1cccc(NC(=O)c2cccc(OC)c2)c1
59: COC(CN=Cc1cc(Cl)cc(Cl)c1O)OC
60: CC(=O)N1N=C(c2c(O)n(C)c(=S)n(C)c2=O)CC1c1ccc(C(C)C)cc1 (stereo unspecified)
screen / no.	51	52	53	54	55	56	57	58	59	60
GIV Gai3 FP	102	97	.	105	99	108	.	98	94	98
Sa growth inh	100	95	84	103	106	95	99	103	84	.
Sa growth inh second temp	90	94	86	105	99	105	95	50	52	.
HCMV UL50-53 inh	-31	-19	-14	.	-17	.	11	-12	.	-16

61: Cc1noc2c1C(c1ccc(Br)c(F)c1)C1=C(CC(c3ccccc3)CC1=O)N2 (stereo unspecified)
62: Cc1ccc(C)c(-c2nnc(NC(=O)Cc3ccccc3)o2)c1
63: Cc1cnc(NC(=O)CSc2nnc(CN(c3ccc(F)cc3)S(C)(=O)=O)n2C)s1
64: CN(C(=O)Cc1cccs1)c1ccccc1
65: O=C(Cn1nc(N2CCN(c3ccccc3)CC2)ccc1=O)NCc1ccccc1F
66: COC(=O)c1cc2c(s1)CS(=O)C2 (stereo unspecified)
67: COc1cc(Nc2nc(SCc3ccc(Cl)cc3)nc3ccccc23)cc(OC)c1
68: Cc1cc(C(=O)N2CCC(Cc3ccccc3)CC2)c(C)o1
69: COc1ccc(-c2nnc(SC(C)C(=O)O)o2)cc1 (stereo unspecified)
70: COc1ccc(CNC(=O)c2ccc3cnn(Cc4cccc(Cl)c4)c3c2)cc1
screen / no.	61	62	63	64	65	66	67	68	69	70
GIV Gai3 FP	104	103	102	.	104	105	104	112	106	107
Sa growth inh	.	54	.	93	79	105	149	95	97	.
Sa growth inh second temp	.	47	.	103	86	87	77	105	102	.
HCMV UL50-53 inh	-16	-29	-4	2	.	.	.	21	-4	-17

71: COc1ccc(CCNC(=O)C2CCCN(C(=O)N(C)C)C2)c(OC)c1 (stereo unspecified)
72: CC(=O)NCc1cc(-c2nn(C)c(=O)c3ccccc23)ccc1C
73: CCC1CCCCN1CCCNC(=O)c1c(C)oc2ncn(CC(C)C)c(=O)c12 (stereo unspecified)
74: Cc1nc2ccc(C(=O)NCc3ccccc3)cc2nc1C
75: CC(=O)c1ccc(N2CCN(C(=O)CCCCn3c(=O)[nH]c4ccccc4c3=O)CC2)cc1
76: CCn1ccc2cc(S(=O)(=O)N3CCCC(C(=O)NCCCN(C)C4CCCCC4)C3)ccc21 (stereo unspecified)
77: O=C(O)C1CCCN1c1nc(C(F)(F)F)nc2ccccc12 (stereo unspecified)
78: COC(=O)c1sc(-c2cccs2)cc1NS(=O)(=O)c1ccccc1
79: Cc1cc(Cl)c(S(=O)(=O)Nc2ccccc2)cc1OCC(=O)Nc1nncs1
80: O=C(c1ccc2c(=O)n3c(nc2c1)CCCC3)N1CCC(Cc2ccccc2)CC1
screen / no.	71	72	73	74	75	76	77	78	79	80
GIV Gai3 FP	100	110	106	106	110	108	102	100	108	106
Sa growth inh	88	87	89	94	103	.	103	101	113	.
Sa growth inh second temp	87	96	89	84	96	.	113	82	103	.
HCMV UL50-53 inh	-31	5	.	4	.	-25	-26	0	4	-16

Part of the list above, reformatted.
[76] CCn1ccc2cc(S(=O)(=O)N3CCCC(C(=O)NCCCN(C)C4CCCCC4)C3)ccc21 (stereo unspecified)
  GIV Gai3 FP = 108
  Sa growth inh = .
  Sa growth inh second temp = .
  HCMV UL50-53 inh = -25

[77] O=C(O)C1CCCN1c1nc(C(F)(F)F)nc2ccccc12 (stereo unspecified)
  GIV Gai3 FP = 102
  Sa growth inh = 103
  Sa growth inh second temp = 113
  HCMV UL50-53 inh = -26

[78] COC(=O)c1sc(-c2cccs2)cc1NS(=O)(=O)c1ccccc1
  GIV Gai3 FP = 100
  Sa growth inh = 101
  Sa growth inh second temp = 82
  HCMV UL50-53 inh = 0

[79] Cc1cc(Cl)c(S(=O)(=O)Nc2ccccc2)cc1OCC(=O)Nc1nncs1
  GIV Gai3 FP = 108
  Sa growth inh = 113
  Sa growth inh second temp = 103
  HCMV UL50-53 inh = 4

The listing continues:
81: Cc1ccc2occ(CC(=O)Nc3c(C(=O)Nc4ccc(Cl)cc4)oc4ccccc34)c2c1
82: Cc1ccc(-c2cc(C(F)(F)F)n3ncc(C(=O)N(C)Cc4c(C)nn(C)c4C)c3n2)cc1
83: Cc1cc(NC(=O)C2CCCC2)n(-c2ncnc3c2cnn3-c2ccc(Cl)cc2)n1
84: Cc1cc(C)c(C#N)c(SCSCc2ccccc2)n1
85: N#Cc1ccc(COC(=O)CSC2CCS(=O)(=O)C2)cc1 (stereo unspecified)
86: Cc1ccc2cc3cc(C(=O)N4CCCCC4C)oc3nc2c1 (stereo unspecified)
87: N#Cc1nc2c(-c3nc4ccccc4[nH]3)c(N)n(Cc3ccccc3)c2nc1C#N
88: CCOC(=O)C(C)N1CC(=O)N(c2ccccc2)C1=O (stereo unspecified)
89: Cc1cc(C(=O)N2CCCC2c2ccccc2F)on1 (stereo unspecified)
90: O=C(NCCN1C(=O)C2C3C=CC(C3)C2C1=O)NCc1ccccc1 (stereo unspecified)
screen / no.	81	82	83	84	85	86	87	88	89	90
GIV Gai3 FP	107	100	97	101	.	102	.	107	108	98
Sa growth inh	122	.	.	99	88	100	86	95	.	84
Sa growth inh second temp	80	.	.	90	98	97	82	95	.	100
HCMV UL50-53 inh	-9	-29	-13	.	-10	-43	-31	-29	5	.

91: CN(C)c1ccc(C(CNC(=S)NCc2ccco2)c2c[nH]c3ccccc23)cc1 (stereo unspecified)
92: O=C(O)CCNCc1cccs1
93: Cc1ccc(NC(=O)Cn2c(=O)n(-c3ccc(CC(=O)NCc4ccco4)cc3)c(=O)c3ccccc32)cc1
94: O=C(COC(=O)c1ccccc1)Nc1ccc(F)c(Cl)c1
screen / no.	91	92	93	94
GIV Gai3 FP	.	100	111	.
Sa growth inh	117	113	96	89
Sa growth inh second temp	103	91	88	100
HCMV UL50-53 inh	11	.	6	10
